NPYLR7 ag: agonists of mosquito NPYLR7 receptor, primary screen, cell-based, Aedes aegypti, calcium fluorescence, mosquito biting behavior; HEK293T NPYLR7/Galpha15, GCaMP6s calcium fluorescence; AID 1259423, 2018; 270,000 tested, 0.15% active; Aedes aegypti neuropeptide Y-like receptor 7 (NPYLR7); activation, % at 10 µM; in the data active means activation above about 40%;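 further: 0% = vehicle and 100% = reference agonist at the receptor; some compounds past the cut are filed as inactive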
NPYLR7 ag max-min: also measured in NPYLR7 ag; calls as there; activation, %; measured here: Max-Min RFU normalised activation; some inactives read as strong as hits;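 span of the calcium signal over five minutes; 0% = vehicle and 100% = native peptide agonist; compound fluorescence can raise it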
Numbers without * were called inactive; & = joins results of further samples. This is a subset (hit frequency here may not be typical).

The first 14 entries as a preview:
SMILES | NPYLR7 ag | NPYLR7 ag max-min
O=C(CCc1cccs1)Nc1cccc(Oc2ncccn2)c1 | 7 | 3
C=C(C)COc1ccc2c(=O)c(-c3ccccc3)c(C)oc2c1 | 3 | 1
O=C(NC1CCCC1)c1cc2c(s1)CS(=O)(=O)C2 | 6 | 4
COc1ccc(C2Nc3ccccc3C(=O)N2Cc2ccco2)c(OC)c1 (stereo not drawn) | 15 | 5
CC(C)Oc1ccc(CN2CCC2(C)C(=O)NC2CCN(C)CC2)cc1 (stereo not drawn) | 8 | 2
CSCc1ccc(C(=O)N2CCc3c([nH]c4ccccc34)C2c2ccccc2C)o1 (stereo not drawn) | 6 | 10
Cc1ccc(-n2nc(C)c(C(=O)O)c2C)cc1 | 12 | 20
Cc1nccn1-c1ccccc1CNC(=O)c1cc(C(C)C)nn1C | 25 | 15
COc1cccc2cc(-c3nc4ccccc4[nH]3)c(=Nc3ccc(C)cc3)oc12 | -7 | -12
O=c1oc2ccc3ccccc3c2cc1-c1nnc(Nc2ccc(Oc3ccc(Cl)c4ccccc34)c(Cl)c2)s1 | -9 | -6
CC(=O)NCCC(=O)NCc1cccnc1N1CCCCCCC1 | -7 | -12
O=C(Nc1ccc(N2CCOCC2)cc1C(F)(F)F)N1CCCC1 | 3 | 1
CCSc1nc(CC(=O)NCc2nc(C)cc(=O)[nH]2)cs1 | 16 | 4
COc1ccc(C(=O)N2CCN(CCc3ccccc3)CC2)c(O)c1 | 2 | 3

Main list, from the first entry:
SMILES | NPYLR7 ag | NPYLR7 ag max-min
O=C(CCc1cccs1)Nc1cccc(Oc2ncccn2)c1 | 7 | 3
C=C(C)COc1ccc2c(=O)c(-c3ccccc3)c(C)oc2c1 | 3 | 1
O=C(NC1CCCC1)c1cc2c(s1)CS(=O)(=O)C2 | 6 | 4
COc1ccc(C2Nc3ccccc3C(=O)N2Cc2ccco2)c(OC)c1 (stereo not drawn) | 15 | 5
CC(C)Oc1ccc(CN2CCC2(C)C(=O)NC2CCN(C)CC2)cc1 (stereo not drawn) | 8 | 2
CSCc1ccc(C(=O)N2CCc3c([nH]c4ccccc34)C2c2ccccc2C)o1 (stereo not drawn) | 6 | 10
Cc1ccc(-n2nc(C)c(C(=O)O)c2C)cc1 | 12 | 20
Cc1nccn1-c1ccccc1CNC(=O)c1cc(C(C)C)nn1C | 25 | 15
COc1cccc2cc(-c3nc4ccccc4[nH]3)c(=Nc3ccc(C)cc3)oc12 | -7 | -12
O=c1oc2ccc3ccccc3c2cc1-c1nnc(Nc2ccc(Oc3ccc(Cl)c4ccccc34)c(Cl)c2)s1 | -9 | -6
CC(=O)NCCC(=O)NCc1cccnc1N1CCCCCCC1 | -7 | -12
O=C(Nc1ccc(N2CCOCC2)cc1C(F)(F)F)N1CCCC1 | 3 | 1
CCSc1nc(CC(=O)NCc2nc(C)cc(=O)[nH]2)cs1 | 16 | 4
COc1ccc(C(=O)N2CCN(CCc3ccccc3)CC2)c(O)c1 | 2 | 3
C=CCNC(=O)C(C1CCCC1)N1CCN(C(=O)c2ccco2)CC1 (stereo not drawn) | -10 | -3
CCN(CC)Cc1cnc2c(C(=O)N3CCN(C)CC3)cnn2c1 | 0 | 0
Cc1cc2cc(CNS(=O)(=O)c3ccc4ccccc4c3)ccc2n1C | 1 | 5
Cc1cccnc1C(C)Nc1ncnc2sc(C(=O)O)c(C)c12 (stereo not drawn) | 6 | 9
CC(=O)N1CCc2c(sc(NC(=O)c3cc4cc([N+](=O)[O-])ccc4s3)c2C#N)C1 | 9 | 5
COc1ccc(C2NC(=O)NC(C)=C2C(=O)OC2CCCC2C)cc1 (stereo not drawn) | -7 | -10
CN1C2CC[C@@H]1CC(OC(=O)[C@H](CO)c1ccccc1)C2 (stereo partly drawn) | -2 | -8
COCCNC(=O)C(NC(=O)c1ccc(C)cc1)C1CCN(C(=O)NC(C)C)CC1 (stereo not drawn) | 2 | 8
CC(C)(CNC(=O)C1CNC(=O)N1)c1cccc(C(F)(F)F)c1 (stereo not drawn) | 8 | -1
COc1cccc(CNC(=O)c2ccc(-c3ccc4c(c3)OCCO4)s2)c1OC | 3 | 0
COc1ncc(C(=O)N2CCCC(CCc3ccc(F)cc3)C2)cn1 (stereo not drawn) | 7 | 3
O=C(CC1CSc2nc3c(cnn3-c3ccccc3)c(=O)n21)Nc1nccs1 (stereo not drawn) | 3 | -1
COc1cccc(-c2cc3c(Nc4ccc(O)cc4)nccc3[nH]2)c1 | -1 | -5
C=CCN1CC(c2nc3ccccc3n2CCOc2ccc(OC)cc2)CC1=O (stereo not drawn) | 1 | 13
CCOc1ccc(CC(=O)Oc2coc(CSc3nccc(C)n3)cc2=O)cc1 | -1 | 2
S=C(Nc1ccc2cn[nH]c2c1)NC1CCCCC1 | 1 | 7
CCc1nc2ccc(C(=O)NCCCn3ccnc3)cn2c1N(CC)C(=O)CCC1CCCC1 | 16 | 9
CCOC(=O)CCNC(=O)NCc1nnnn1-c1cccc(F)c1 | -5 | -4
COc1cc(C(=O)Nc2ccc(NC(C)=O)cc2)ccc1C | -1 | -2
COCCOc1nc(-c2ccc(F)cc2)n(-c2cccc(NC(=O)c3cccc(F)c3)c2)n1 | 5 | 20
COc1ccc(OC)c(-c2cc(C(=O)NC(Cc3ccccc3)C(=O)NC3CC3)no2)c1 (stereo not drawn) | 7 | 6
Cc1cc(C)c(S(=O)(=O)Nc2c(C)n(C)n(-c3ccccc3)c2=O)c(C)c1 | -3 | -5
CCn1c(CC2CCN(C(=O)COc3cccnc3)CC2)nn(C)c1=O | 13 | 4
CCCN(CC(=O)N(CCc1ccc(OC)c(OC)c1)Cc1sccc1C)S(=O)(=O)/C=C/c1ccccc1 | 2 | 0
Cc1ccc(S(=O)(=O)NCc2nccn2C(F)F)cc1C(F)(F)F | 1 | 0
Cc1nc(NN2C(=O)NC3(CCCCC3)C2=O)c2c(C)c(C)sc2n1 | 13 | 6
Cc1ccc(NC(=O)CN2CN(c3ccccc3)C3(CCN(C(=O)C4C[C@H]4c4ccccc4)CC3)C2=O)cc1C (stereo partly drawn) | 9 | 11
c1ccc2[nH]c(CCn3ccnc3-c3ccc(-c4ccn[nH]4)o3)nc2c1 | 1 | -2
COC(=O)C1=C(C)N(c2ccc(C)c(F)c2)C(=S)NC1c1ccc(-n2ccnc2)cc1 (stereo not drawn) | -1 | -1
CC(C)(C)n1nnnc1SCC(=O)Nc1ccc(N2CCCCC2)cc1 | 5 | 0
O=C(NCC1(CCO)CCCCC1)c1ccc(Br)cc1Cl | -2 | -8
CNC(=O)C1CCN(Cc2cccc(C(=O)Nc3cccc(CO)c3C)c2)C1 (stereo not drawn) | 4 | -7
Cc1cc2nc(CN(C)Cc3nc(Cc4cccc(C(F)(F)F)c4)no3)[nH]c2cc1C | -1 | -5
O=C(c1cc(-c2ccc([N+](=O)[O-])cc2)nn1-c1ccccc1Cl)N1CCN(C/C=C/c2ccccc2)CC1 | -11 | 0
COc1cc2c(cc1OC)C(CC#N)N(C(=O)c1sc3cc(F)ccc3c1Cl)CC2 (stereo not drawn) | -5 | -3
CC1CCc2c(sc(NC(=O)C3CCOCC3)c2C(=O)c2ccco2)C1 (stereo not drawn) | 1 | 24

Continuation:
SMILES | NPYLR7 ag | NPYLR7 ag max-min
Cc1nc(SCC(=O)NC(N)=O)n(CC(C)C)c1C | 0 | -3
CCCN(CC1CC1)c1nc(-c2ccccc2C(F)(F)F)nc2ccccc12 | 6 | 13
O=C(NCc1ccccc1)N1CCN(c2nccnc2NS(=O)(=O)c2ccc3c(c2)OCCO3)CC1 | 7 | 11
COc1cc(-c2nc3cc(C)ccn3c2NC(C)(C)CC(C)(C)C)ccc1OC(=O)c1ccccc1OC | 1&-1 | 16&1
CC12C(=O)N(n3cnnc3)C(=O)C1C1C=CC2C1 (stereo not drawn) | -5 | -7
CCCc1[nH]n(-c2ccccc2)c(=O)c1C1=C(N2CCN(CC)CC2)C(=O)N(c2ccc(OC)cc2OC)C1=O | 22 | 17
Cc1ccc(-c2nnc(SCc3ccc(C(=O)N4CCCC4)cc3)n2-c2cccc(Cl)c2)cc1 | 17 | 12
Cc1cncc(NC(=O)c2cccc(CN(C)Cc3ccno3)c2)c1 | 8 | -9
CN1C(=O)CCC(C(=O)OCC2CC3CCC2C3)C1c1cnn(C)c1 (stereo not drawn) | -1 | -5
Cc1ccc(N2CCC(=O)N(CC3CC3)C(C(C)C)C2)nn1 (stereo not drawn) | 6 | 4
CC(C(=O)Nc1cccc(C#N)c1)n1nnc(-c2ccccc2Cl)n1 (stereo not drawn) | 1 | 2
CCN(CC)c1nc2ccccc2[nH]1 | 1 | -9
O=C(c1csc(CSc2nnc(-c3cccnc3)n2-c2cccc(C(F)(F)F)c2)n1)N1CCN(c2ccccc2Cl)CC1 | 10 | 16
CS(=O)(=O)N1Cc2ccccc2CC1C(=O)OCc1nc2ccccc2c(=O)n1CC#N (stereo not drawn) | 5 | 13
O=C(N[C@H]1CCCCNC1=O)c1cn(CCCc2ccccc2)nn1 | 7 | 5
COc1cn2c(cc1=O)C(=O)N(CCNC(=O)c1cc(=O)c3ccccc3o1)CC2 | 14 | 7
Cc1ccc(CNC(=O)CCC2CCCN(C(=O)c3cccc4nccnc34)C2)o1 (stereo not drawn) | 13 | 6
Cc1ccc2nc(SC/C=C/c3ccccc3)nc(=O)n2c1 | 14 | 8
C=C1c2ccccc2C(=O)N1C(C)C(=O)NCc1ccccc1F (stereo not drawn) | 0 | -1
Cc1oc(-c2ccccc2Cl)nc1CN(Cc1ccccc1)C[C@@H]1CCC(=O)N1 | 4 | 1
O=C(c1ccco1)N1C2C=CC(C2)C1(C(F)(F)F)C(F)(F)F (stereo not drawn) | 2 | 0
CC=CC=CC(=O)OCc1nc2c(c(=O)[nH]c(=O)n2CCCC)n1C | 17 | 17
COCCCn1c(=N)c(C#N)cc2c(=O)n3cccc(C)c3nc21 | 1 | 5
COc1ccc(C2CC(c3ccccc3)=Nc3ncnn32)c(OC)c1 (stereo not drawn) | -11 | -23
Fc1cccc(C2CC(c3cccnc3)=Nc3nc(C(F)(F)F)nn32)c1 (stereo not drawn) | 10 | 10
CC1=C(C(=O)OC2CCCC2C)C(c2ccc(C)cc2)NC(=O)N1 (stereo not drawn) | 9 | 14
O=C(O)C=CC(=O)NNC(=S)NCc1ccco1 | -1 | -3
CCOc1ccc(-c2nc(Cn3ccn4nc(-c5ccc(C)c(C)c5)cc4c3=O)c(C)o2)cc1 | -1 | -4
CCc1noc(CN(CC)C(=O)C(c2cccc(C)c2)N(C)C)n1 (stereo not drawn) | 7 | -3
CC(C)c1cc(N2CCCC3(CC2)CNC(=O)O3)nc(C(F)(F)F)n1 (stereo not drawn) | 5 | -1
O=C(Cc1cccc(O)c1)N1CCc2cnccc21 | -1 | -4
Cc1nn(-c2nc(C)c(C)c(=O)[nH]2)c(C)c1CCC(=O)Nc1ccc(C(C)C)cc1 | 7 | -1
O=C(CSc1nnc(-c2ccccc2Cl)n1-c1ccccc1Cl)c1cccc([N+](=O)[O-])c1 | 2 | 5
Cc1ccc(-c2ccc3[nH]c(=O)[nH]c(=O)c3c2)c(-n2cccn2)c1 | 33 | 20
CC(=O)Oc1ccccc1C(=O)N1CCC(c2nc(-c3ccccc3F)no2)CC1 | -5 | -8
FC(F)(F)c1ccccc1Nc1nc(Cl)nc(Cl)n1 | -3 | -6
O=C1c2ccccc2C(=O)N1CCCCN(C(=O)c1cccs1)c1ccc(F)cc1F | -7 | -12
CCCCCC(O)c1nnc(Nc2ccccc2)s1 (stereo not drawn) | -2 | -1
CCC(O)CN(Cc1ccccc1)Cc1cccs1 (stereo not drawn) | -3 | 2
Cc1[nH]c2ccc(CNC(=O)c3cnc(CN4CCCC4)s3)cc2c1C | 6 | 5
CC(C)(C)C(=O)Nc1sc2c(c1C#N)CCC2 | -3 | -9
Cc1ccccc1CNC(=O)Nc1cccc(C(=O)N(C)C)n1 | 5 | 3
CC(NC(=O)CCNS(=O)(=O)c1cccs1)c1ccncc1 (stereo not drawn) | 10 | 7
NC(=O)c1ccc(N2CCN(Cc3ccc4ccccc4n3)CC2)nc1 | 1 | -5
COc1cccc(NC(=O)CCC2CCN(C(=O)Cc3nonc3C)CC2)c1 | 12 | 3
Cc1nc(-c2ccc(Cl)cc2)nc(N2CCN(C(=O)Nc3c(C(C)C)cccc3C(C)C)CC2)c1Cc1ccccc1 | -2 | 1
O=C(NCC1CCC2(CC1)OCCO2)c1ccc(Cl)cc1F | 5 | 2
O=C(Cc1ccc(F)c(Br)c1)Nc1n[nH]c(-c2ccccn2)n1 | 0 | -1
Cc1noc(C)c1S(=O)(=O)Oc1ccccc1C(N)=O | 7 | 4
CCCC(=O)N1CCC1(C)C(=O)NS(=O)(=O)c1ccc(C)cc1OC (stereo not drawn) | 0 | -2

(cont.)
SMILES | NPYLR7 ag | NPYLR7 ag max-min
CCN1C(=S)NC(c2cccc(NC(=O)Nc3ccc(C#N)cc3)c2)C(C(=O)OC)=C1C (stereo not drawn) | 5 | 10
N#Cc1cccc(/C=C/C(=O)N(CCC(N)=O)Cc2ccccc2)c1 | 6 | 5
O=c1ccc(-c2ccccc2)nn1CCNS(=O)(=O)c1cccs1 | 1 | 3
Cn1c(SCc2nc(-c3cccs3)no2)nnc1-c1ccco1 | 6 | 4
CCCN(CC(=O)Nc1cc(C(C)(C)C)nn1-c1cccc(C)c1)C(=O)Nc1ccc(C(=O)OCC)cc1 | 0 | 11
CO[C@H]1CN(C(=O)c2cccc3c2OCC3)CC[C@H]1N | 3 | 0
Cc1ccc(C)c(C=c2sc(=CC(=O)C(C)(C)C)[nH]c2=O)c1 | 4 | 3
CC(O)c1nc2ccccc2n1Cc1ccccc1Cl (stereo not drawn) | 2 | -3
Clc1cc(Br)ccc1Oc1ncnc2sccc12 | 0 | 2
CC(C)(C)c1csc(CN2CCN(C(=O)C3CC3)CC2)n1 | -15 | -20
CCOC(=O)CC1COCCN1C(=O)c1cn(Cc2ccc(F)cc2Cl)nn1 (stereo not drawn) | 1 | -6
